Bioassay records deposited in PubChem by Broad Institute.
Ecoli rRNA inh = reduced GFP signal of wild-type E. coli, primary screen, bacterial rRNA inhibitor project, GFP/RFP fluorescence, OD600, single point | AID 720706, 2013 | 350,000 compounds, 1.6% hits | E. coli WT GFP vs humanized-ribosome RFP mutants, 24 h; hits give low values; DMSO median 0, no signal -100 | GFP signal change (wild-type ribosome), % (no concentration beside the values);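 active = significant combined selectivity score with lowered wild-type GFP, culture density cut under 30%, mutant RFP and density less affected; inactive = any of these conditions unmet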; also: one replicate is shown; some compounds called inactive have numbers as strong as hits
T cruzi repl = inhibitors of intracellular T. cruzi growth, primary screen, luminescence, NIH3T3 host cells; T. cruzi beta-gal in NIH3T3, 90 h; inhibition, % (concentration not given with the values); 300,000 compounds, 1.4% hits; AID 1885, 2009;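 active = mean inhibition across valid replicates above about 55%, limit read from the data; inconclusive = mean below that limit but half or more replicates reach it; inactive = mean below it, under half of replicates reach it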;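 also: signal also drops with host cell toxicity which is not excluded here; 0% = plate median of DMSO wells and 100% = zero luminescence signal; higher percent means less beta-gal luminescence so fewer parasites; stock transfer was 50 nL into about 50 µL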
MLL AF4-AF9 inh = inhibitors of AF4 peptide binding to AF9, primary screen, biochemical, AlphaScreen, biotin-AF4 peptide, FLAG-AF9, single point. inhibition, % at 10 µM. 350,000 compounds, 0.47% hits;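 active = every replicate reaching a set inhibition limit, whatever the replicate mean, cut at about 25% in these data; inconclusive = mean inhibition reaches that limit but some replicates miss it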;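 also: 0% = plate neutral control median and 100% = total signal loss; the record names both 10 and 1 µM as test concentration; the first replicate is given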
Target sequence (P42568 whole entry, looked up): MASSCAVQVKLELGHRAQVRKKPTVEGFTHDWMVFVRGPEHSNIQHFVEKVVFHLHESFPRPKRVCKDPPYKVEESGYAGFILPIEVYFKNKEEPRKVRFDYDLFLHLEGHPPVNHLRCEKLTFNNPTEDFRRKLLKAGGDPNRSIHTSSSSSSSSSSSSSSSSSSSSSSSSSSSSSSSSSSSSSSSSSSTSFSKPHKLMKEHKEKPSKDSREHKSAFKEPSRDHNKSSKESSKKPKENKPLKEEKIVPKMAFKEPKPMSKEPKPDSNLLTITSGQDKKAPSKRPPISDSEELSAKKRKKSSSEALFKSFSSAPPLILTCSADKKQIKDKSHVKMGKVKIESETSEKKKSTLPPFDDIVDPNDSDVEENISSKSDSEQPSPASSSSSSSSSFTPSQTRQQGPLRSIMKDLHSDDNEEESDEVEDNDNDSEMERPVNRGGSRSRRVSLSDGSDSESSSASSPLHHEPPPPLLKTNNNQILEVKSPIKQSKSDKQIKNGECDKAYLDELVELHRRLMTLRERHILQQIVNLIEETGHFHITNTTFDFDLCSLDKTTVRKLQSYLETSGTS
RanGTP-Imp inh = inhibitors of RanGTP-importin-beta interaction, primary screen, biochemical, FRET, CFP-Ran, YFP-importin-beta, homogeneous; 300,000 compounds, 1.1% hits; Ran GTPase (GTP-bound) - importin-beta complex; AID 2216, 2009; inhibition, % (concentration not given with the values); cell-free CFP-Ran/YFP-importin-beta FRET ratio;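 active = most replicates above 15%; inconclusive = exactly half above 15%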;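 also: 0% = DMSO wells and 100% = Ran loaded with GDP instead of GTP; wells of about 40 µL received 100 nL stock; the first replicate is given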
Calb FLC = C. albicans growth inhibition with fluconazole, primary screen, CaCi-2 strain, Alamar Blue fluorescence | 300,000 compounds, 0.57% hits | C. albicans CaCi-2 (fluconazole-resistant clinical isolate) + fluconazole, 48 h | growth inhibition, % (no concentration beside the values);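 active = most replicates above 75%; inconclusive = exactly half above 75%; inactive = most below 75%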;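 also: all wells also contain fluconazole at 8 µg/ml as a sub-toxic cotreatment; 0% = median of DMSO wells and 100% = median of geldanamycin control wells; wells of about 8 µL received 7.5 nL stock; the first replicate is given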
ALR inh = inhibitors of human ALR sulfhydryl oxidase, primary screen, biochemical, H2O2 detection, HRP-luminol luminescence, single point; FAD-linked sulfhydryl oxidase ALR (Homo sapiens), P55789; purified ALR, DTT oxidation; inhibition, % (concentration not given with the values); 290,000 compounds, 3.8% hits; AID 485317, 2010;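 active = mean and each replicate at 75% or more; inconclusive = only one of the two met; inactive = neither met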;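 also: stock transfer was 7.5 nL into about 7.5 µL; 0% = neutral wells and 100% = wells with inactivated enzyme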
Target sequence (P55789 whole entry, looked up): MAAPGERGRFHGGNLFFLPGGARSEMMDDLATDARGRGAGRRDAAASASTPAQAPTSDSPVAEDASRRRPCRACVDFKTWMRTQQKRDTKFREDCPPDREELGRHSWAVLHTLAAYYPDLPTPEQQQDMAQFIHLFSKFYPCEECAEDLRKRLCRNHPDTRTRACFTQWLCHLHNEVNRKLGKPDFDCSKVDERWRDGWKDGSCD
Beta cell apopt = inhibitors of cytokine-induced beta cell apoptosis, primary screen, luminescence | 300,000 compounds, 0.8% hits | INS-1E cytokine-induced death, ATP luminescence, 48 h; percent of positive-control rescue, neutral wells zero | protection from apoptosis, % (no concentration beside the values);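 active = all replicates at 75% or more, or half of them and the mean; inconclusive = half reach 75% but not the mean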;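 also: 0% = cytokine-treated negative control wells and 100% = positive control rescue; higher means more ATP so stronger rescue from cytokine killing; wells of about 40 µL received 100 nL stock; the first replicate is given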
FGF22 binding = binders of human FGF22 protein, primary screen, FGF22 synaptogenesis inhibitor project, biophysical, thermal shift, single point; Fibroblast growth factor 22 (Homo sapiens), Q9HCT0; recombinant FGF22 thermal shift, SYPRO orange fluorescence; percent of sucrose octasulfate shift, DMSO zero; calls only at 9.99 µM; 340,000 compounds, 1.5% hits; AID 651658, 2012;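 active = melting point raised past a set limit in the mean and every replicate; inconclusive = no clear call; three in four hits are not shown here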
Target sequence (Q9HCT0 whole entry, looked up): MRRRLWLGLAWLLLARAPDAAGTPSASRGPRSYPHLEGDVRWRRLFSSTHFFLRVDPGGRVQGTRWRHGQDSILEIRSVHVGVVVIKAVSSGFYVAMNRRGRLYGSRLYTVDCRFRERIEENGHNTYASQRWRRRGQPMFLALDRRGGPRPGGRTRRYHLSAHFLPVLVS
Ecoli rRNA inh OD600 = further read-out of Ecoli rRNA inh, marked with its call; OD600 change, %; measured here: OD600 growth;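 optical density of the mix in the first replicate; 0 = DMSO median and -100 = no signal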
Ecoli rRNA inh RFP = second read-out of Ecoli rRNA inh, no call of its own (marks repeat the call); RFP signal change, %; measured here: RFP humanized mutant strains;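 first replicate; 0 = DMSO median and -100 = no signal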
Starred values were filed as active, the others as inactive; i = inactive; ? = inconclusive; . = not tested or not shown; & = joins results of further samples. An excerpt; rates above refer to the full screens.

SMILES	Ecoli rRNA inh	Ecoli rRNA inh OD600	Ecoli rRNA inh RFP	T cruzi repl	MLL AF4-AF9 inh	RanGTP-Imp inh	Calb FLC	ALR inh	Beta cell apopt	FGF22 binding
O=C(CC(=O)c1ccccc1)Nc1cc([N+](=O)[O-])ccc1Cl	-1	1	-3.1	-7	1.6	0.3	25	0	8	i
CCCc1sc(N/N=C/c2ccccn2)nc1-c1ccc(Br)cc1	4	-5	4.1	65*	-22	-1.2	-31	-2	111*	.
Nc1cc(-c2cccc([N+](=O)[O-])c2)[nH]n1	16	14	0.8	-10	1.0	-1.3	-3	72	-8	i
CC(=O)Nc1ccc(S(=O)(=O)Nc2nc(C)nc3sc(C)c(C)c23)cc1	1	-16	-0.1	.	-6.6	.	.	22	2	i
CN1/C(=C\C(=O)Nc2cccc(Cl)c2)C(C)(C)c2ccccc21	-27	-53	66	19	5.9	-0.2	24	.	11	i
O=C(C1CC1)N1N=C(c2ccc(Cl)cc2)CC1(O)C(F)(F)F (centres undefined)	-28	-40	-8.6	1	0.1	2.9	12	-3	-1	i
COc1ccc(/C(C)=N/NC(=O)c2cc(C)[nH]n2)c(OC)c1	3	7	0.2	-6	1.5	2.0	7	-1	-5	i
CN(CC(=O)Nc1ccc(Cl)c(C(F)(F)F)c1)C(=O)c1ccc(OCC2CCCO2)cc1 (centres undefined)	0	-3	1.1	12	-0.2	.	7	1	0	i
CCOc1ccc(NC(=O)CN(C)CC(=O)Nc2ccccc2SC)cc1OCC	.	.	.	-15	.	-1.3	1	-5	-4	.
O=C(CNC(=S)NC(=O)c1ccccc1Br)c1ccccc1	13	7	-4.4	-7	-2.3	-2.9	0	-4	3	i
O=C(Cc1nn[nH]n1)NCCC1=CCCCC1	.	.	.	-27	.	3.6	-16	1	1	.
CC(C)C(NS(=O)(=O)c1ccccc1)C(=O)N1CCN(C(=O)c2ccco2)CC1 (centres undefined)	7	10	-2.0	1	-3.9	-2.4	6	-6	-6	i
CCCc1nc2c(nnn2Cc2ccccc2Cl)c(=O)[nH]1	-14	-26	2.6	-12	-2.1	4.3	-10	-2	-2	i
Cc1ccccc1NC(=S)NCc1cccs1	.	.	.	-50	.	0.9	-26	-13	0	.
O=C(NC1CC2CCC(C1)N2Cc1ccco1)c1ccccc1 (centres undefined)	.	.	.	6	.	-2.5	-6	8	-2	.
CC(=O)CSc1ccc(C(=O)O)cn1	.	.	.	-12	.	-1.0	6	.	-8	.
CCOC(=O)N1CCN(c2ncnc3nc[nH]c23)CC1	8	11	2.3	-5	3.9	-3.2	3	-8	-2	i
CCSc1nnc([C@@H](NC(=O)OC(C)(C)C)C(C)C)o1	9	6	1.4	-2	.	0.0	-17	.	-1	i
CN(C)C1=NC[C@H](Cc2ccccc2)N1CC1CCCC1	4	1	-6.0	.	4.2	.	.	.	-9	i
CCn1cc(C(=O)NCCC(=O)NCCO)c(=O)c2cc3c(cc21)OCO3	5	8	7.9	-15	-2.9	-0.9	-10	.	-3	i
CCO[C@@H]1OC(C(=O)NCc2ccccc2)=C[C@H](c2ccc3c(c2)OCO3)[C@H]1CCCO	3	4	-14	7	-6.9	1.5	-5	-4	-9	i
COCCNC(=O)C(c1ccc(Cl)cc1)N(CCOC)C(=O)CCC(=O)Nc1nccs1 (centres undefined)	13	9	2.5	-12	0.0	6.7	-7	-2	-4	i
Cc1ccc(-c2nc3n(n2)Cc2ccccc2-3)cc1	.	.	.	1	.	0.4	-10	.	18	.
O=C(c1cc2ccccc2oc1=O)N1CCN(CCc2ccccc2)CC1	.	.	.	8	.	33*	9	-1	2	.
CC(C)(C)NC(=O)CSc1nnc(-c2ccco2)n1Cc1ccco1	.	.	.	-4	.	-0.2	-1	2	0	.
COc1ccc(NC(=O)CCC(=O)N/N=C/c2cn(C)nc2C)cc1	12	7	-1.4	-30	.	4.1	-14	-1	2	i
CC(C)(C)NC(=O)NCc1cccnc1	7	5	0.2	-7	.	3.2	-2	-7	-1	i
CCOC(=O)C1CCN(S(=O)(=O)c2cc(C(=O)N3CCCCC3)ccc2OC)CC1	2	8	0.2	6	-1.0	-5.0	-3	-3	-2	i
CC(=O)N1CCN(c2ccc(OC[C@H]3CO[C@](Cn4ccnc4)(c4ccc(Cl)cc4Cl)O3)cc2)CC1	-62	-80	-20	51	16&21	5.1	.	24	9	i
CC1(C)CC(NC(=O)c2coc(=O)c(Br)c2)CC(C)(C)N1	.	.	.	-2	.	-2.0	6	-6	-2	.
O=C(O)c1cccc(S(=O)(=O)N2CCN(Cc3ccc4c(c3)OCO4)CC2)c1	13	6	3.1	-6	-27	0.6	-13	.	-2	i
Cc1ccc(C)c(N2CCN(C(=O)C3CCCN(S(=O)(=O)c4cnc[nH]4)C3)CC2)c1 (centres undefined)	6	0	3.3	10	0.7	1.0	0	97*	.	i
CN1C(=O)C(C)(C)c2cc(S(=O)(=O)N3CCN(c4ccc(F)cc4)CC3)ccc21	-5	-13	-0.9	19	4.2	1.6	37	2	2	i
CCOC(=O)N1CCC(NC(=O)CCC(=O)N2CCOc3ccccc32)CC1	.	.	.	-18	.	1.1	-16	-10	-4	.
Cc1ccccc1C(=O)NNC(=O)C1CC(=O)N(c2ccc3c(c2)OCCO3)C1 (centres undefined)	19	12	0.5	.	-2.8	.	.	0	-7	i
Cc1ccccc1N/C=C/C(=C(C#N)C#N)N(C)C	17	3	-0.7	-5	0.4	3.7	8	-7	.	i
CCCCn1cnc2c1c(=O)[nH]c(=O)n2CCCC	.	.	.	-11	.	-1.7	-4	-6	-2	.
CC(C)Cn1c(N)c(C(=O)COC(=O)/C=C/c2cccs2)c(=O)n(C)c1=O	-23*	-15*	7.9*	-8	5.2	?	8	-11	9	i
O=C(NCC(c1ccco1)N1CCOCC1)c1ccc(F)cc1 (centres undefined)	11	11	-0.7	-9	-1.1	0.5	-3	-3	-5	i
CC(CNC(=O)c1cc(COc2ccc3ncccc3c2)on1)c1ccccc1 (centres undefined)	-25	-33	-6.9	22	-2.6	1.6	3	-4	.	i
O=C(NCc1ccc(F)cc1)C(=O)c1cn(CC(=O)N2CCCC2)c2ccccc12	-17	-10	-0.5	27	-0.1	-2.4	-2	-3	-4	i
Cc1cccc(OCCCN2C(=O)C(=O)c3cc(C)ccc32)c1	-10	-18	18	30	9.1	11	-2	-1	-2	i
CCCCN(CC)CCNC(=O)Cn1cc2c(n1)-c1c(oc(C(=O)N3CCCC3)c1C)CC2	2	6	5.7	46	0.8	2.1	2	-194	-5	i
CCCCCCN1CC(=O)N2[C@@H](Cc3c([nH]c4ccccc34)C2(C)C)C1=O	0	7	6.1	-9	-3.0	1.8	2	-1	5	i
O=C(Oc1cc(=O)oc2ccccc12)c1ccccc1	-9	-7	-6.9	4	-1.3	-3.2	-5	-17	-4	i
CC(=O)/C(C(=N)N1CCN(c2cccc(Cl)c2)CC1)=C(\C)O	0	-5	2.9	-11	-7.3	-1.0	2	-9	1	i
COc1ccc(OC2CCN(C(=O)Nc3ccc(C)cc3)CC2)cc1	4	19	-0.5	-8	-1.0	1.3	-11	1	-10	i
Clc1ccc(CSc2nnc(-c3cccnc3)o2)cc1	.	.	.	-2	.	-2.1	1	-4	-5	.
C/C(=N/NC(=O)c1cc(Cl)ccc1O)C12CC3CC(CC(C3)C1)C2	.	.	.	-10	.	2.4	-14	9	-8	.
CCc1nnc(NC=C2C(=O)OC(C)(C)OC2=O)s1	7	2	-2.6	3	0.8	-1.7	-17	0	-8	i
CCn1cc(C(=O)N(C)c2ccccc2F)c2cc(OC)c(OC)cc2c1=O	1	4	2.3	-5	-0.5	7.8	2	-11	4	i
COc1ccc(C(=O)NCC(=O)N2CCCC(C(F)(F)F)C2)cc1OC (centres undefined)	10	11	3.9	-3	1.6	-0.1	4	5	0	i
COc1cc(C=O)ccc1OCC(=O)Nc1cccc(S(=O)(=O)N(C)c2ccccc2)c1	-29	-33	-2.9	-5	-0.1	3.4	.	-5	-12	i
CC(C)N1CCC(=NNC(=O)c2cccs2)CC1	17	18	1.6	-13	-2.6	-0.5	4	-3	1	i
CCc1cc2c3c([nH]c2cc1S(=O)(=O)NCCCOC)CC(C)(C)CC3=O	-7	-8	1.8	10	-1.1	1.0	-5	3	0	i
O=C(COc1ccccc1)NCCSCc1ccccc1Cl	-28	-51	-11	5	-2.2	4.1	8	-6	-1	i
O=C(CSc1ccccc1)NCc1ccc(F)cc1	5	4	-0.4	7	0.9	3.2	0	-11	-6	i
COc1cccc(CNC(=O)C2CCCN(S(=O)(=O)c3c(C)n[nH]c3C)C2)c1 (centres undefined)	.	.	.	-7	.	-3.1	1	2	1	.
COc1ccccc1NS(=O)(=O)c1cc(NC(=O)c2ccccc2F)ccc1N1CCOCC1	.	.	.	26	1.2	0.0	-4	-12	21	i
CCOc1ccc(S(=O)(=O)NC2CCCCCC2)cc1	8	1	-2.5	4	?	-0.4	-22	.	7	i
More compounds follow:
SMILES	Ecoli rRNA inh	Ecoli rRNA inh OD600	Ecoli rRNA inh RFP	T cruzi repl	MLL AF4-AF9 inh	RanGTP-Imp inh	Calb FLC	ALR inh	Beta cell apopt	FGF22 binding
CC(C)CN(C(=O)COC(=O)CNC(=O)c1ccccc1)c1c(N)n(Cc2ccccc2)c(=O)[nH]c1=O	3	5	-1.2	6	-0.6	-2.5	-3	.	-5	i
COc1cccc(-c2ccc(NC(=O)C3CCCN(Cc4ccco4)C3)cc2)c1 (centres undefined)	-43	-64	-5.3	32	2.0	-0.7	-18	-9	2	i
O=C(C[n+]1ccccc1)N/N=C/c1ccc(Cl)cc1	6	10	-3.7	.	0.4	.	.	.	-6	i
O=C(N/N=C/c1sc(N2CCOCC2)nc1-c1ccccc1)c1ccc(O)cc1	5	3	0.8	-6	18	5.7	-2	2	13	i
CCNC(=S)Nc1ccc(-c2nc3ccccc3[nH]2)cc1	-24	-21	-4.1	-23	3.2	3.5	4	57	2	i
CC(C)Oc1ccc(C(=O)Nc2ncn[nH]2)cc1	-2	4	-1.8	-7	4.2	1.4	-10	-2	-4	i
O=C1N(c2ccccc2)CCN1c1ccccc1	7	9	0.7	-15	3.7	-1.6	5	.	9	i

Printed as active in ALR inh (from the list above):
mol	Ecoli rRNA inh	Ecoli rRNA inh OD600	Ecoli rRNA inh RFP	MLL AF4-AF9 inh	RanGTP-Imp inh	ALR inh
Cc1ccc(C)c(N2CCN(C(=O)C3CCCN(S(=O)(=O)c4cnc[nH]4)C3)CC2)c1 (centres undefined)	6	0	3.3	0.7	1.0	97*
